# Screening data from PubChem.
# LASV entry inh: blocks Lassa virus binding or cell entry. Lassa virus pseudotyped entry inhibition, cell-based qHTS; control for the full effect not named in the record; many of its hits are not listed in these tables. Potency, µM (titrated, usually from 49.2 µM), inactives show at the highest dose activity change, negative = inhibition, hits mostly inhibitors. actives 4.1% (n = 18,000). AID 720533; active = well fitted inhibition curve with a large enough effect; inconclusive = small, poorly fitted or top-dose-only effect; inactive = no such curve, though single readings can be large or run the other way; tested in HEK293 cells; note: luciferase read-out
# MARV entry inh: blocks Marburg virus binding or cell entry; AID 720532; Potency, µM (highest dose often 49.2 µM), without a hit: at the top dose activity change, negative = inhibition, usual class: inhibitors; actives 6.5% (n = 18,000); Marburg virus pseudotype entry/binding inhibition, cell-based; control for the full effect not named in the record; many of its hits are not listed in these tables; active means well fitted inhibition curve with a large enough effect; inconclusive means small, poorly fitted or top-dose-only effect; inactive means no such curve, though single readings can be large or run the other way; tested in HEK293 cells; note: luciferase read-out
# An asterisk follows results filed as active; ? = inconclusive; · = no result given; & = joins results of further samples; ! = not active in a repeat; [ ] = another dose, or the depositor's remark. % is set by controls: 0 for no effect and ±100 for the full control effect; potency is the fitted concentration of half-maximal effect. Rows were taken by chance; any-hit rate near 8.2%.
cpd | SMILES | MARV entry inh | LASV entry inh
1 | c1ccc2sc(N3CCN(Cc4ccc5c(c4)OCO5)CC3)nc2c1 | 8.2%&14.4% | 33.6%&4.2%[activator]
2 | C=CCOC(=O)N[C@H](C(C(=O)OC)=C(C)NCc1ccccc1)c1cccc(OC)c1 | -13.4%[8.59 µM] | 7.0%[8.59 µM]
3 | CCCCC/C=C\C[C@@H]1O[C@H]1C(O)/C=C\C/C=C\CCCC(=O)O (stereo not given in full) | -6.8% | -2.1%
4 | CC(C)(C)NC[C@H](O)c1cc(Cl)c(N)c(Cl)c1 | -8.9%[17.8 µM] | -3.7%[17.8 µM]
5 | COCc1ccc(C(=O)N2CCOc3c(cc(-c4cc(C)c5cccc(OC)c5n4)cc3OC)C2)o1 | -40.0% | 12.7%
6 | C=C(C)CCCN1C=C(C(C)=O)C(c2ccccc2)NC1=O (stereo not given) | 2.3%[8.59 µM] | 0.3%[8.59 µM]
7 | O=C(Nc1cccc(N2CCC(NCc3cnn(-c4ccccc4)n3)CC2)c1)c1cccnc1 | -23.4% | 4.7%
8 | CC1C(=O)N(Cc2cn(CCC3OCCO3)nn2)CCS(=O)(=O)N1Cc1ccc(-c2ccc(Cl)cc2)cc1 (stereo not given) | -27.4% | ·
9 | COc1ccc(/C=C/c2cc(O)cc(O[C@H]3OC(CO)C(O)C(O)C3O)c2)cc1 (stereo not given in full) | 76.1%[activator] | -0.3%
10 | CCN(CC)CCCCCCCCOC(=O)c1cc(OC)c(OC)c(OC)c1 | 12.6µM* | 25.1µM*
11 | Cc1ccc2[nH]c(O)c(N=Nc3ccc(S(N)(=O)=O)cc3)c2c1 | 84.7%[activator] | ?
12 | CC(C)(C)c1ccc(C(=O)N2CCC3(CC2)CC3C(=O)NCCc2ccccn2)cc1 (stereo not given) | -16.1% | 23.7%

# Profiles, quoted from the list. Values in the order: MARV entry inh	LASV entry inh
# `C=CCOC(=O)N[C@H](C(C(=O)OC)=C(C)NCc1ccccc1)c1cccc(OC)c1` reads -13.4%[8.59 µM]	7.0%[8.59 µM]
# `COCc1ccc(C(=O)N2CCOc3c(cc(-c4cc(C)c5cccc(OC)c5n4)cc3OC)C2)o1` reads -40.0%	12.7%
# `CCN(CC)CCCCCCCCOC(=O)c1cc(OC)c(OC)c(OC)c1` reads 12.6µM*	25.1µM*
# `CCCCC/C=C\C[C@@H]1O[C@H]1C(O)/C=C\C/C=C\CCCC(=O)O` (stereo not given in full) reads -6.8%	-2.1%
# `CC(C)(C)NC[C@H](O)c1cc(Cl)c(N)c(Cl)c1` reads -8.9%[17.8 µM]	-3.7%[17.8 µM]

# Carrying on.
cpd | SMILES | MARV entry inh | LASV entry inh
13 | Cc1cc(-c2ccc(N=Nc3ccc4c(S(=O)(=O)O)cc(S(=O)(=O)O)c(N)c4c3O)c(C)c2)ccc1N=Nc1ccc2c(S(=O)(=O)O)cc(S(=O)(=O)O)c(N)c2c1O | -20.9%&-18.9% | ?
14 | CCC1CN(CCC(=O)N2CCCN(C(=O)c3ccco3)CC2)Cc2cc(OC)ccc2O1 (stereo not given) | -15.5% | -21.6%
15 | Cc1cccc(C2=NN(c3ccc(Br)cc3)[C@@H](C(=O)N3CCOC3=O)[C@@H]2c2ccc(Cl)cc2)c1 | 1.3% | -27.6%
16 | CC(C)CC1C(=O)N(Cc2cn(CCC3OCCO3)nn2)CCS(=O)(=O)N1Cc1ccc(-c2ccncc2)cc1 (stereo not given) | -6.9% | -16.4%
17 | CC(C)Nc1oc(-c2ccccc2)nc1C=Cc1ccccc1 | -31.4%[8.59 µM] | 7.5%[8.59 µM]
18 | CCC(=O)O[C@](Cc1ccccc1)(c1ccccc1)[C@H](C)CN(C)C | 28.2µM* | -13.4%
19 | CN1CCN(C2CN(Cc3cn(Cc4ccccc4F)nn3)S(=O)(=O)C2)CC1 (stereo not given) | 13.8% | 14.8%
20 | CC(C)(C)OC(=O)N1CCCC(C(=O)Nc2ccc(C(=O)N3CCOCC3)cc2)C1 (stereo not given) | 18.4% | 2.8%
21 | CCc1cc(C(=O)NCC2Cc3cccc(-c4ccc(C(=O)OC)cn4)c3O2)no1 (stereo not given) | 21.0% | -5.6%
22 | COc1ccc2ccccc2c1CN1CCC2(CCC(CNC(=O)c3ccccc3)O2)CC1 (stereo not given) | 12.6µM* | -10.7%
23 | COc1ccc2c(c1)C(NC(=O)C(F)(F)F)CC21CCCCC1 (stereo not given) | ? | -8.0%[8.59 µM]
24 | CCN(CC)CCCCN1c2ccccc2Oc2ccc(Cl)cc21 | 6.31µM* | ?
25 | O=C1NC(CC(=O)N2CCC(n3c(C4CCC4)nc4cccnc43)CC2)c2ccccc21 (stereo not given) | 2.7% | -11.6%
26 | C=CCN1CC[C@]23c4c5ccc(O)c4O[C@H]2[C@@H](O)C=C[C@H]3[C@H]1C5 | 6.8% | -13.6%
27 | COc1cccc(CNc2ccc3nc(-c4ccc(N)cc4)c(OC)n3n2)c1 | ? | ?
28 | CCC(O)c1ccccc1 (stereo not given) | 8.4%&2.9%&0.2% | -7.8%&-22.5%&-3.2%
29 | COC(=O)CCCC1=CC2=CC(=O)C(C)(OC(=O)c3cccs3)C(=O)C2=CN1Cc1ccco1 (stereo not given) | -29.9%[8.59 µM] | -2.6%[8.59 µM]
30 | O=C(NCC1CCC2(CCN(Cc3ccccc3O)CC2)O1)C1CCCO1 (stereo not given) | -23.3% | -1.9%
31 | CC(C)Cn1nnnc1S(=O)(=O)CCc1ccccc1 | -11.0% | 7.2%
32 | CC(N)(COP(=O)(O)Oc1ccccc1)C(=O)O (stereo not given) | 6.8% | 23.3%
33 | C[C@H](NC(=O)[C@@H](N)Cc1ccc(O)cc1)C(=O)N[C@@H](Cc1ccccc1)C(=O)NCC(=O)N[C@@H](Cc1ccc(O)cc1)C(=O)N1CCC[C@H]1C(=O)N[C@@H](CO)C(N)=O | 17.1% | -1.1%
34 | CC#CCC(C)[C@H](O)/C=C/[C@@H]1[C@H]2c3cccc(CCCC(=O)O)c3O[C@H]2C[C@H]1O (stereo not given in full) | 7.6% | -13.8%
35 | CC1CC(O)[C@]2(O)[C@]13CC(=O)OC[C@@]2(C)[C@@](C)(O)C(=O)C3 (stereo not given in full) | 5.5% | -1.0%
36 | COC(=O)CC=C1c2ccccc2OC[C@@H](OC)[C@H]1C | 2.4%[8.59 µM] | -25.0%[8.59 µM]

# The list goes on; it opens with the 6 that closed the last part.
cpd | SMILES | MARV entry inh | LASV entry inh
31 | CC(C)Cn1nnnc1S(=O)(=O)CCc1ccccc1 | -11.0% | 7.2%
32 | CC(N)(COP(=O)(O)Oc1ccccc1)C(=O)O (stereo not given) | 6.8% | 23.3%
33 | C[C@H](NC(=O)[C@@H](N)Cc1ccc(O)cc1)C(=O)N[C@@H](Cc1ccccc1)C(=O)NCC(=O)N[C@@H](Cc1ccc(O)cc1)C(=O)N1CCC[C@H]1C(=O)N[C@@H](CO)C(N)=O | 17.1% | -1.1%
34 | CC#CCC(C)[C@H](O)/C=C/[C@@H]1[C@H]2c3cccc(CCCC(=O)O)c3O[C@H]2C[C@H]1O (stereo not given in full) | 7.6% | -13.8%
35 | CC1CC(O)[C@]2(O)[C@]13CC(=O)OC[C@@]2(C)[C@@](C)(O)C(=O)C3 (stereo not given in full) | 5.5% | -1.0%
36 | COC(=O)CC=C1c2ccccc2OC[C@@H](OC)[C@H]1C | 2.4%[8.59 µM] | -25.0%[8.59 µM]
37 | Cc1ncsc1CCC(=O)N1CCCC(c2nc(-c3ccncc3)ncc2-c2ccccc2)C1 (stereo not given) | ? | -20.5%
38 | Oc1ccc2c3c1O[C@H]1c4oc5ccccc5c4C[C@]4(O)[C@H](C2)N(CC2CC2)CC[C@@]314 | 28.2µM* | 28.2µM*
39 | C/C=C(\C)C(=O)O[C@H]1C[C@@]2(C)CCC(C(C)C)C2(O)CC[C@@]1(C)O (stereo not given in full) | -6.5% | -12.2%
40 | COc1cc(-c2cnc3ccccc3c2)cc2c1OCCN(C(=O)CCC(=O)c1ccc(F)cc1)C2 | -15.2% | -7.5%
41 | C=CC1=C2C=C(C3CC3)N(CCOC)C=C2C(=O)C(C)(OC(=O)c2ccco2)C1=O (stereo not given) | -2.2%[8.59 µM] | -18.3%[8.59 µM]
42 | CN(CCc1ccccc1)c1cc2c(c3c1ccn3C)C1CCC2O1 (stereo not given) | -27.1% | 20.5%
43 | CSc1nc(C(=O)NCc2nc(-c3cccc(NC(=O)c4ccccn4)c3)oc2C)cs1 | -26.0% | ?
44 | Cc1nc(N=Nc2cc([N+](=O)[O-])ccc2Cl)c(COP(=O)(O)O)c(C=O)c1O | 2.1% | -9.1%
45 | O=C(Nc1cccc(C(=O)N2CCCC2)c1)C1CCCC1 | 13.4% | ·
46 | Cc1ccc2c(c1)c1c3n2CCNC3CCC1 (stereo not given) | ? | -8.8%
47 | C=CCCCCCCCCCCCC(O)CC(O)CO (stereo not given) (tested in a mixture with another compound) | 5.0% | -7.9%
48 | Cc1ccc(-c2ccnc(-n3ncc(C(=O)NC[C@@H]4CCCN5CCCC[C@H]45)c3C3CC3)n2)o1 | -14.2% | 4.6%
49 | CC(N)=NCCCC[C@H](N)C(=O)O | 5.4% | -8.3%
50 | COC(=O)N[C@H](CC(C)=O)c1cccc(F)c1 | -6.7%[8.59 µM] | 21.0%[8.59 µM]
51 | COc1cc(-c2ccc(N=Nc3ccc4c(S(=O)(=O)O)cc(S(=O)(=O)O)c(N)c4c3O)c(OC)c2)ccc1N=Nc1ccc2c(S(=O)(=O)O)cc(S(=O)(=O)O)c(N)c2c1O | ? | ?
52 | CC(=O)Nc1ccccc1-c1nc(CNC(=O)c2cc(C)ccc2C)c(C)o1 | 7.5% | -1.5%
53 | COc1cc(N)c(Cl)cc1C(=O)CCC1CCN(CCNS(C)(=O)=O)CC1 | 31.6µM*! | ?
54 | CC(C)(C)OC(=O)NCCCCC1=CC2=CC(=O)C(C)(OC(=O)c3cccs3)C(=O)C2=CO1 (stereo not given) | -6.5% | 3.5%
55 | C#CCOS(=O)OC1CCCCC1Oc1ccc(C(C)(C)C)cc1 (stereo not given) | 16.5% | -2.9%
56 | CC(=O)C(=O)O | 21.4% | 0.5%
57 | CCOC(=O)C1C(C(=O)OC)=C(C2=CCCCC2)c2ccccc2N1S(=O)(=O)C(F)(F)F (stereo not given) | -7.9% | -29.0%
58 | CC[C@H](C)[C@H](NC(=O)[C@H](Cc1ccc(O)cc1)NC(=O)[C@@H]1CCCN1C(=O)[C@@H](N)CCCN=C(N)N)C(=O)N[C@@H](CC(C)C)C(=O)O | 5.6% | 5.3%
59 | COc1ccc2c(c1)OC[C@H]1c3cc4c(cc3O[C@@H]21)OCO4 | 11.8% | 3.9%
60 | CCCCCCCCCCCCOCCCN | 19.0% | 3.1%
61 | O=S1(=O)CC(N2CCN(CCO)CC2)CN1Cc1ccc(F)cc1 (stereo not given) | ? | 16.4%
62 | CC(C)(C)OC(=O)N1CCC(C(=O)Nc2cccc(C(=O)N3CCCCC3)c2)CC1 | 13.2% | 14.4%
63 | O=c1cc(-c2ccccc2)[nH]c2ccc(Cl)cc12 | ? | -3.7%
64 | O=C1[C@H]2[C@@H]3[C@@H](O)[C@H](O)CC(=NOCc4ccccc4)[C@H]3CC[C@H]2C(=O)N1C[C@@H]1CCCO1 | -6.8%[8.59 µM] | -6.1%[8.59 µM]
65 | C=CCOC(=O)N[C@H](c1cccc(OC)c1)[C@H](C)C=CCC(=O)OC | 14.5%[8.59 µM] | ·
66 | O=c1cc(-c2cc(O)c(O)c([C@@H]3O[C@H](CO)[C@@H](O)[C@H](O)[C@H]3O)c2)oc2cc(O[C@@H]3O[C@H](CO)[C@@H](O)[C@H](O)[C@H]3O)cc(O)c12 | 36.8%[activator] | 15.6%
67 | C/C=C(/C)C(=O)O[C@H]1C[C@@]2(C)O[C@H]2[C@@H](OC(C)=O)C2(C)CC[C@@](O)(C(C)C)C12 (stereo not given in full) | 3.5% | 0.6%
68 | COc1cc(=O)n2c(c1C(=O)N(C)Cc1ccsc1)CCN(Cc1cnn(C)c1C)CC2 | 2.7% | -5.9%
69 | COc1ccc(CN2CCCC(n3cc(C(=O)N4CCCCC4)nn3)C2)cc1OC (stereo not given) | 1.8% | -0.6%
70 | COc1ccc(CN(CCC(C)C)S(=O)(=O)c2ccccc2Br)cc1 | -13.8% | -7.1%
71 | COc1cc(Nc2nccc(-c3cnn4ncccc34)n2)cc(OC)c1 | 3.53µM* | ?
72 | N#Cc1cc(Br)c(O)c(Br)c1 | 22.8% | -8.5%
